# RecA intein inh: Mtb RecA intein splicing inhibition. hit rate 0.75% among 290,000. cell-free RecA intein splicing, fluorescence. inhibition, %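 (about 9 µM by stock and volumes)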; in the data active = inhibition above about 30%; inconclusive = no clear call, values can overlap the other calls;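 note: 0% = vehicle wells and 100% = reference inhibitor control wells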
# Target sequence (P9WHJ3 whole entry, looked up): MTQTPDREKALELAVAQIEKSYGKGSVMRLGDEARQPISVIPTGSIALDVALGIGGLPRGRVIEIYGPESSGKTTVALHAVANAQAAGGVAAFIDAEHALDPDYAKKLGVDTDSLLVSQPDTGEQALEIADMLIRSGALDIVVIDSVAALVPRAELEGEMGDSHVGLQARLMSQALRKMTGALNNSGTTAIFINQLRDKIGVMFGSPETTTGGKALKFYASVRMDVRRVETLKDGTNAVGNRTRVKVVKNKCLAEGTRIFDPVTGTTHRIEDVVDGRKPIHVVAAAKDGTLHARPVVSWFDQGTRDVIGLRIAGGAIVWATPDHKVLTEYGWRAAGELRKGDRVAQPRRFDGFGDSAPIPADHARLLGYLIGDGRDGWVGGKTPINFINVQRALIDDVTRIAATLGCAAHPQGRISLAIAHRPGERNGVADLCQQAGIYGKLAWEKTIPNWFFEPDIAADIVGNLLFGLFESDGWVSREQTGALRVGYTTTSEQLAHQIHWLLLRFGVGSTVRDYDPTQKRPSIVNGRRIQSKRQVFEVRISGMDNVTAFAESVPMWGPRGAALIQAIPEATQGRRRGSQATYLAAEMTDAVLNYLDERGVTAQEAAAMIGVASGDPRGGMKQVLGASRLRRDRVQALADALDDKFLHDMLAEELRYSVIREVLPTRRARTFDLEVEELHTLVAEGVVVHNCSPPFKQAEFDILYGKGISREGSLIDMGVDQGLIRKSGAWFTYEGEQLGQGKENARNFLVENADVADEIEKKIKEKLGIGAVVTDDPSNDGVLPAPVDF
# Mtb bLac sens: beta-lactam sensitization of Mtb H37Rv | inhibition, % at 25 µM | hit rate 0.27% among 330,000 | M. tuberculosis H37Rv growth with meropenem, percent inhibition; hits of this screen are not shown here | AID 434955;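 active = about 74% or more and at least 40 points above the plate without the antibiotic, then above 30% in a dose series; inconclusive = first-round hits that could not be retested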;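 note: growth measured after seven days incubation then overnight dye step; 0% = bacteria only wells and 100% = bacteria with antibiotic; twin plates without the antibiotic show which effects depend on it; some results filed as inactive read as strong as hits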
# Mtb H37Rv: M. tuberculosis H37Rv growth inhibitors, H37Rv strain (AID 1626); M. tuberculosis H37Rv growth inhibition; higher % means a stronger effect; hit rate 0.95% among 220,000; one-dose inhibition, % at 10 µM; IC50 in µM for titrated hits;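 active = confirmed in a dose series; inconclusive = inhibition above 80% but not taken into the dose series; inactive = below 80% or under 30% at every dose of the series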;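 note: bacteria incubated seven days before Alamar blue readout; 0% = bacteria only wells and 100% = bacteria with antibiotic wells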
# Arbovirus anti: blocks arbovirus infection. arbovirus infection cell-based antiviral screen. inhibition, % at 10 µM. hit rate 0.37% among 200,000. AID 1251;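 active = inhibition from about 30%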;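 note: bluetongue infection of BSR cells; cell survival read as ATP light after 72 h; 0% = infected wells without compound and 100% = uninfected wells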
# YopH PTP inh: blocks Yersinia enterocolitica YopH tyrosine phosphatase; hit rate 0.16% among 140,000; inhibition, %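 (about 10 µM by stock and volumes)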; fluorescence Ex485/Em525;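 active = inhibition of 50% or more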;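 note: controls were vehicle for no effect and minimum signal wells for full effect; inactives centre near -20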
# Arbovirus anti repeat: further read-out of Arbovirus anti, marked with its call; inhibition, %; measured here: 10K subset replicate screen; many hits read low in the repeat;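 first of two repeat runs on a subset; 0% = infected and 100% = uninfected wells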
# * = called active by the depositor; u = inconclusive; x = no result given. The list is partial (hit frequency here may not be typical).
SMILES,RecA intein inh,Mtb bLac sens,Mtb H37Rv,Arbovirus anti,YopH PTP inh,others
CCOC(=O)c1cc[n+](CC(=O)c2ccc(F)cc2)cc1,-1.2,5,7%,-2,-11,
COc1ccc(N/C(=N\c2nc(C)cc(C)n2)NC(C)=O)cc1OC,-0.3,2,0%,-2,-3,
Cc1ccc(Cl)cc1NC(=O)C1CCN(S(C)(=O)=O)CC1,4.0,-16,-1%,-1,x,
CCOC(=O)c1sc(-c2ccc(Cl)cc2)nc1O,-158,10,6%,x,x,
Cc1cccc(N2CC(C)Cn3c2nc2c3c(=O)[nH]c(=O)n2C)c1 (stereo not drawn),-0.3,-2,x,x,x,
CCOC(=O)CSc1nc2ccccc2c(=O)n1CC1CCC(C(=O)NCc2ccco2)CC1 (stereo not drawn),0.5,-1,0%,-4,-33,
Cc1cc(C)c(NC(=O)C2CCN(c3cnccn3)CC2)c(C)c1,-0.6,9,-1%,3,-8,
COc1cc(/C=C/C(=O)Nc2nnc(CC(C)C)s2)cc(OC)c1OC,0.0,6,-4%,16,-21,
CCN(c1cccc(C)c1)S(=O)(=O)c1cn(CC(=O)OC)c2ccc([N+](=O)[O-])cc12,0.3,9,x,x,x,
COc1ccc(S(=O)(=O)N2CCCC2)c(Cl)c1Cl,x,1,4%,0,x,
N#Cc1ccc(CSc2nnc(-c3cccs3)n2-c2ccccc2)cc1,15,5,-7%,6,8,
CC(=O)Nc1nc(C)c(Oc2ccc(Cl)cc2)c(=O)[nH]1,-0.4,-2,-9%,x,x,
COCCNC(=O)c1cc2nc(-c3ccc(F)cc3)cc(C(F)(F)F)n2n1,-2.5,-7,0%,10,x,
COc1ccc(C)cc1S(=O)(=O)NC1CCCCC1,-1.6,-12,-6%,0,-31,Arbovirus anti repeat=4
CCn1c(SCC(=O)Nc2ccc3c(c2)OCCO3)nnc1-c1c[nH]c2ccccc12,-5.2,-4,-6%,2,x,
CC1CCCC(NC(=O)CNC(=O)c2cccs2)C1C (stereo not drawn),0.7,-6,x,x,x,
N#Cc1nc(-c2ccco2)oc1N1CCc2ccccc2C1,2.8,8,-10%,-4,-36,
COc1cc(Br)cc(C(c2c(C)n(C)n(-c3ccccc3)c2=O)c2c(C)n(C)n(-c3ccccc3)c2=O)c1O,4.1,0,x,x,x,
CCCCC[C@H](O)/C=C/[C@H]1C=CC(=O)[C@@H]1C/C=C\CCCC(=O)O,x,x,-9%,13,-38,
Nc1nc(SCC(=O)OCc2ccccc2)[nH]c(=O)c1NC(=O)c1ccco1,-0.2,-9,-4%,2,-41,Arbovirus anti repeat=-2
CC(=O)c1ccc(N(C(=O)CS(=O)CC(=O)Nc2ccc(F)cc2)C(C(=O)NC2CCCCC2)c2cccs2)cc1 (stereo not drawn),1.3,6,0%,2,-16,
COc1ccc(CCN2C(=O)CSC2c2ccc(OC)c(OC)c2)cc1OC (stereo not drawn),0.3,3,-8%,1,x,
Nn1c(SCc2ccccc2F)nnc1-c1cccnc1,-1.7,-7,2%,x,x,
COc1cccc(/C=C2\CCC(C3CCCC3)C2=O)c1 (stereo not drawn),7.8,4,x,x,x,
O=S1(=O)c2ccccc2C(CCO)N1Cc1ccccc1 (stereo not drawn),1.5,-8,-3%,x,x,
# Further entries:
SMILES,RecA intein inh,Mtb bLac sens,Mtb H37Rv,Arbovirus anti,YopH PTP inh,others
CN(C)c1ccc(/C=N/N2C(=S)SC(C)(C)C2N(O)C(=O)Nc2ccc([N+](=O)[O-])cc2)cc1 (stereo not drawn),-2.4,-7,-1%,0,-3,
COc1cc(C=C2C(=O)OC(C)(C)OC2=O)cc(Cl)c1OCC(=O)Nc1ccccc1,7.9,1,23%,4,x,
Nc1nnc(SCC(=O)Nc2cc(C(F)(F)F)ccc2N2CCOCC2)s1,1.6,5,-3%,11,-24,
Cc1nc2ccc(P(=O)(O)O)cc2s1,-4.1,-4,-4%,2,x,
CCOc1cc(C2C(C(=O)c3ccccc3)=C(C(=O)OC)Nc3nnnn32)ccc1O (stereo not drawn),-0.6,3,-11%,16,-141,
CC1=C(C(=O)OCCBr)C(c2cccc3ccccc23)NC(=O)N1 (stereo not drawn),1.8,2,x,x,x,
COc1cccc(N2CC(C(=O)Nc3nnc(SCC(=O)NC4CCCC4)s3)CC2=O)c1 (stereo not drawn),5.1,u,x,x,x,
CN(C)C(=O)C1Cc2ccccc2CN1S(=O)(=O)c1ccc(F)cc1 (stereo not drawn),-2.1,-5,x,x,x,
CCOC(=O)c1c(CSc2ccccc2)n(C)c2cc(Br)c(O)c(CN(C)C)c12,16,10,10%,x,x,
O=[N+]([O-])c1ccccc1NCCNS(=O)(=O)c1ccc(Cl)cc1,3.4,7,12%,7,-21,
Oc1cc(O)cc(-c2cc3ccc(O)cc3o2)c1,-5.0,-12,-5%,x,x,
O=C(/C=C/c1ccccc1)OCCCCN=C1NS(=O)(=O)c2ccccc21,-1.6,-2,-4%,2,x,
CNS(=O)(=O)c1cccc(C(=O)OCC(=O)C23CC4CC(CC(C4)C2)C3)c1,0.3,-8,-13%,8,-18,
O=C(CSc1n[nH]c(-c2ccccc2O)n1)N1CCOCC1,-4.4,2,-1%,10,x,
CC1CC(C)CN(C(=O)Cn2c(=O)oc3cc(S(=O)(=O)N4CCCC4)ccc32)C1 (stereo not drawn),-1.7,0,x,x,x,
O=C(Cc1ccc(-n2c(=O)c3ccccc3n(Cc3ccccc3Cl)c2=O)cc1)NCC1CCCO1 (stereo not drawn),-1.4,-3,-7%,-1,x,
CCOc1ccc(NC(=O)C2(c3ccc(OC)c(OC)c3)CCCC2)cc1,0.3,10,7%,-1,-23,
CCn1c(SCC(=O)c2ccc3ccccc3c2)nnc1-c1ccco1,0.9,-8,19%,1,-15,
CC(C)Oc1ccc(Oc2ccc(C(F)(F)F)cn2)cc1,3.8,-9,4%,-4,-18,
CCOC(=O)c1c(NC(=O)c2cccs2)sc2c1CC(C)(C)OC2,-7.7,-7,7%,5,-32,
COc1cccc(CNC(=O)c2cc3oc4ccccc4c3n2C)c1OC,0.6,0,-10%,0,-52,
O=C(OCn1nnc2ccccc2c1=O)c1cn(-c2ccccc2)nc1-c1cccnc1,0.6,84,59%,-2,-12,
Cc1cccc2nc(Cn3c(=O)n(CCCC(=O)NCc4ccco4)c(=O)c4ccccc43)cc(=O)n12,-2.9,0,-5%,9,-16,
CC(=O)Nc1nc2c(C)c(Cl)ccc2s1,-0.4,-3,4%,x,x,
O=C(O)CN1C(=O)/C(=C\c2cccc(OCc3ccc(Cl)cc3Cl)c2)SC1=S,40*,-2,x,x,x,
# More structures follow:
SMILES,RecA intein inh,Mtb bLac sens,Mtb H37Rv,Arbovirus anti,YopH PTP inh,others
O=Cc1cn(Cc2ccc(F)cc2Cl)c2ccccc12,0.1,0,11%,14,-10,
Cc1cccc(-c2cc(=O)c(C(=O)O)cn2-c2ccc(F)cc2F)c1,-1.6,-8,-8%,x,x,
Cc1ccc2c(c1)N(CC(=O)NCc1cccs1)C(=O)C(C)O2 (stereo not drawn),-2.0,-7,1%,9,-97,
CC1CC(=O)C2=C(C1)Nc1ccccc1SC2c1ccc(F)cc1 (stereo not drawn),-4.4,4,6%,-9,-20,
O=C(c1ccc2c(Cl)c3c(nc2c1)CCCC3)N1CCC(N2CCCCC2)CC1,4.3,-3,-2%,-14,-17,
CCOC(=O)C1CCCN(C(=O)Cc2ccc(OC)c(OC)c2)C1 (stereo not drawn),-0.8,-9,-4%,6,26,
O=C(O)CCSc1ccc([N+](=O)[O-])cc1[N+](=O)[O-],18,-4,-4%,-9,x,
FC(F)(F)c1ccc(-n2cn[nH]c2=S)cc1,-0.9,-1,0%,x,x,
O=S(=O)(CCN1CCOCC1)c1ccccc1,-1.0,-1,x,x,x,
COc1cc(OC)c(NC(=O)CN(C)S(=O)(=O)c2ccc(-c3ccc(=O)[nH]n3)s2)cc1Cl,2.4,-4,x,x,x,
CS(=O)(=O)c1ccc(Cl)c(NC(=O)C2CC(=O)N(c3ccc4c(c3)OCCO4)C2)c1 (stereo not drawn),0.5,-3,x,x,x,
FC(F)(F)c1ccc(CNCCc2c[nH]c3ccccc23)cc1,2.6,4,x,x,x,
N#CC[N+]1(CCCNP2(=O)C=C(c3ccccc3)OC(c3ccccc3)=C2)CCOCC1,-1.6,-2,6%,2,x,
CC(C)c1ccc(NC(=O)Cn2nnc(C(=O)NCc3ccco3)c2N)cc1,-3.5,-2,x,x,x,
Cc1cc(C)c(C#N)c(Nc2ccccc2Cl)n1,x,-1,1%,-2,-47,
CC(C)N1C(=O)S/C(=C/c2ccc3c(c2)n(C)c(=O)n3C)C1=O,-0.8,29,19%,-13,-21,
O=C(c1ccccn1)N1CCCC(N2CCN(c3cccc(C(F)(F)F)c3)CC2)C1 (stereo not drawn),1.2,-8,x,x,x,
N#C/C(=C\c1ccccc1O)C(=O)Nc1cccnc1,0.8,-3,5%,x,x,
Cc1c(NC(=O)CSc2nnnn2C)c(=O)n(-c2ccccc2)n1C,-1.2,2,3%,0,-3,
CC(NC(=O)/C(=C/c1ccc(OC(F)F)cc1)c1ccccc1)c1ccccc1 (stereo not drawn),2.3,11,4%,-8,-37,
C/C(=N\Nc1cccc(C(=O)O)c1)c1ccc2c(c1)Nc1ccccc1S2,-7.0,59,-4%,x,x,
N#Cc1cc2c([nH]c1=S)CCCC2,-2.1,0,-1%,9,-11,
CCN(CC(=O)Nc1ccccc1-c1ccccc1)Cc1nc2ccccc2c(=O)[nH]1,1.2,-9,8%,-16,x,
Cc1cc(-c2nnc3n2N=C(c2ccccc2Br)CS3)n[nH]1,1.0,2,17%,x,x,
CC1CCc2sc(C(=O)NN=C3CCC(c4ccccc4)CC3)cc2C1 (stereo not drawn),1.8,38,75%,-6,-18,
# The list goes on.
SMILES,RecA intein inh,Mtb bLac sens,Mtb H37Rv,Arbovirus anti,YopH PTP inh,others
CCOC(=O)N1CCN(C(=O)c2cc(S(=O)(=O)N3CCc4ccccc43)ccc2OC)CC1,-0.5,-4,x,x,x,
C=CCNc1nc(NCc2ccco2)nc(OCC)n1,-4.6,-5,0%,0,-39,
COc1ccc(N2CCN(Cc3cc(=O)oc4cc5c(cc34)CCCC5)CC2)cc1,-0.5,1,4%,-5,-46,
Cc1cc(S(=O)(=O)N2CCCC2)ccc1OCC(=O)Nc1ccccc1,-5.8,-14,x,x,x,
O=C1N[C@@H](Cc2ccccc2)C(=O)N2[C@@H]3N(S(=O)(=O)c4ccc(F)cc4)c4ccccc4[C@]3(Br)C[C@@H]12,8.5,-3,-6%,x,x,
O=C(c1ccc(N2CCOCC2)cc1)N1CCCC(Nc2ccccc2)C1 (stereo not drawn),1.1,11,x,x,x,
O=C(O)c1n[nH]c2c1CCCCC2,1.1,5,2%,-2,-24,
Nc1nc2n(n1)C(c1cccc(Br)c1)CC(c1ccccc1)N2 (stereo not drawn),-6.4,-9,6%,3,-15,Arbovirus anti repeat=-3
CCOC(=O)N1CCC(N2C(=O)c3ccc(C(=O)O)cc3C2=O)CC1,-1.0,0,-2%,4,-29,
CS(=O)(=O)c1ccc(C(=O)OCC(=O)Nc2cccc(S(=O)(=O)N3CCCC3)c2)cc1,-1.6,3,x,x,x,
O=C(OCC1CC(c2ccccc2)=NO1)c1ccc(Cl)cc1 (stereo not drawn),0.6,49,1%,-2,-47,
O=C(Cc1ccc([N+](=O)[O-])cc1)Nc1ccc2c(c1)C(=O)NC2=O,-3.1,-2,-9%,0,x,

# Ordered by length of the SMILES (smallest number first): some entries from above.
SMILES,RecA intein inh,Mtb bLac sens,Mtb H37Rv,Arbovirus anti,YopH PTP inh,others
O=C(O)c1n[nH]c2c1CCCCC2,1.1,5,2%,-2,-24,
C=CCNc1nc(NCc2ccco2)nc(OCC)n1,-4.6,-5,0%,0,-39,
O=C(OCC1CC(c2ccccc2)=NO1)c1ccc(Cl)cc1 (stereo not drawn),0.6,49,1%,-2,-47,
Nc1nc2n(n1)C(c1cccc(Br)c1)CC(c1ccccc1)N2 (stereo not drawn),-6.4,-9,6%,3,-15,Arbovirus anti repeat=-3
CC1CCc2sc(C(=O)NN=C3CCC(c4ccccc4)CC3)cc2C1 (stereo not drawn),1.8,38,75%,-6,-18,
Cc1cc(S(=O)(=O)N2CCCC2)ccc1OCC(=O)Nc1ccccc1,-5.8,-14,x,x,x,
CCOC(=O)N1CCC(N2C(=O)c3ccc(C(=O)O)cc3C2=O)CC1,-1.0,0,-2%,4,-29,
COc1ccc(N2CCN(Cc3cc(=O)oc4cc5c(cc34)CCCC5)CC2)cc1,-0.5,1,4%,-5,-46,
CCOC(=O)N1CCN(C(=O)c2cc(S(=O)(=O)N3CCc4ccccc43)ccc2OC)CC1,-0.5,-4,x,x,x,
CS(=O)(=O)c1ccc(C(=O)OCC(=O)Nc2cccc(S(=O)(=O)N3CCCC3)c2)cc1,-1.6,3,x,x,x,
O=C1N[C@@H](Cc2ccccc2)C(=O)N2[C@@H]3N(S(=O)(=O)c4ccc(F)cc4)c4ccccc4[C@]3(Br)C[C@@H]12,8.5,-3,-6%,x,x,

# Screens (PubChem BioAssay)
